High-throughput results: PubChem BioAssay, National Center for Advancing Translational Sciences (NCATS)
TRPML1 ag = human mucolipin-1 channel agonism; 0.12% of 410,000 active; activation, % (test concentration not listed); TRPML1-expressing cells, Ca2+ dye fluorescence, FDSS; host cell line not named in the record; reference of the full effect not given here; Q9GZU1; in the data active = activation above about 50%; inconclusive = about 30% to 50%; inactive = below about 30%; also: 0% is about no effect; the text of the record puts the active cut at 80%
Target sequence (Q9GZU1 whole entry, looked up): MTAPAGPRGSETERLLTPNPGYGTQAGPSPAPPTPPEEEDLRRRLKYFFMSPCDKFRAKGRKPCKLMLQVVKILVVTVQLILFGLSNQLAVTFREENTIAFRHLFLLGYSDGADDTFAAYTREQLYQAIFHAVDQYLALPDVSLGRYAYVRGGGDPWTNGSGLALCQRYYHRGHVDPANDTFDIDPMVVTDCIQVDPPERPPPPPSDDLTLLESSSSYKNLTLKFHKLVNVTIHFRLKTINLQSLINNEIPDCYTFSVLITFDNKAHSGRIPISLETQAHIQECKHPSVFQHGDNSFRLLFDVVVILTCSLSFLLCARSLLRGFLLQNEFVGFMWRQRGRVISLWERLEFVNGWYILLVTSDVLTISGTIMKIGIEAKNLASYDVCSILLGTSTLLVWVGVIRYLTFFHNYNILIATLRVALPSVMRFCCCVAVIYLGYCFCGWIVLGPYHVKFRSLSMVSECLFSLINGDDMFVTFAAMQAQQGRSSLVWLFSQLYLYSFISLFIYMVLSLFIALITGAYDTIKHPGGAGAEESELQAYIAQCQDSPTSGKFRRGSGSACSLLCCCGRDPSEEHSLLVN
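Calcium fluorescence on an FDSS kinetic reader gave the read-out. Tet-induced TRPML1-DL cells were plated overnight, dye-loaded (Ca8 with quencher, 45-90 min, room temperature, dark), then read 110 s after compound addition, and again 110 s after 4uM final 54-4 (EC80).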
D2 PAM = potentiates the human D2 dopamine receptor allosterically; 0.23% of 360,000 active; AID 624464; P14416; potentiation, % (concentration not given with the values); DiscoveRx D2 beta-arrestin cells, luminescence, 90 min; 100% = 57 uM dopamine signal; active = potentiation of 50% or more; inconclusive = 30% to 50%; inactive = 30% or less;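 also: compound concentration not given in the record; tested on top of an EC20 dose of dopamine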
Target sequence (P14416 whole entry, looked up): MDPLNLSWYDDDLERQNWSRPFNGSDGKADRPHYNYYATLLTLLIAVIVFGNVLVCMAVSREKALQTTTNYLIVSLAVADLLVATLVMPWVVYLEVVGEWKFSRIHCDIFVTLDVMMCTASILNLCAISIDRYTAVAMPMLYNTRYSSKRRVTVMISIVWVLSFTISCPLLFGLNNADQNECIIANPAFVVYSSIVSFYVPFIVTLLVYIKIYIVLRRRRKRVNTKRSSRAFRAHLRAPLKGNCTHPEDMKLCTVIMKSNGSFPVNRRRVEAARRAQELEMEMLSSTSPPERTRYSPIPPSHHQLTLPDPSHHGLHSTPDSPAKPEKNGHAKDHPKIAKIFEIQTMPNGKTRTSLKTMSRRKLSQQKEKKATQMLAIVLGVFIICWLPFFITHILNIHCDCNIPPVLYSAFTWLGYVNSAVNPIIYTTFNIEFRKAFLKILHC
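PathHunter beta-arrestin assay in DiscoveRx D2 cells. Compounds were added with an EC20 of dopamine (50 nM final) for 90 min at 37 deg C. Luminescence was read 1 h after detection reagent, with 57 uM dopamine as the EC100 control.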
D2 agonist = human D2 receptor agonism in beta-arrestin assay | DiscoveRx PathHunter D2 beta-arrestin, luminescence, 90 min; 100% = 57 uM dopamine signal | activation, % (no concentration beside the values) | 0.084% of 360,000 active; in the data active = activation above about 40%; inconclusive = about 15% to 40%; inactive = below about 15%; also: compound concentration not given in the record; the text of the record calls up to 30% inactive
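DiscoveRx PathHunter D2 beta-arrestin cells (2,100/well) attached overnight, then compound-stimulated 90 min at 37 C in HBSS/10 mM HEPES/0.1% Tween-20 buffer; beta-galactosidase complementation read by luminescence after 1 h at ambient temperature. Dopamine 57 uM final (EC100) as control.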
PINK1 expr mod = changes PINK1 expression; PINK1 immunofluorescence, high-content cytometry, 24 h; Potency, µM (series often up to 76.6 µM), for the others: at the highest dose activation (PINK1 increase), actives largely listed as activators; 0.2% of 410,000 active; AID 624263; active = well fitted activation curve with a large enough effect; inconclusive = small, poorly fitted or top-dose-only effect; inactive = flat fitted curve, though single readings scatter; cell line not stated here;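 also: potency is read from the fitted curve at half-maximal effect; % of control where 0% means no effect; nearly all actives have a fitted effect of over 65% in size; a mitochondrial uncoupler was the plate control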
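Readout is PINK1 immunofluorescence, quantified alongside mitochondrial, cell and nuclear markers by laser-scanning microplate cytometry. Cells from a stable line were exposed to compound titrations (5 concentrations) for 24 hours, with CCCP controls.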
CtBP-E1A inh = CtBP/E1A binding inhibition; AID 651724; 0.49% of 340,000 active; AlphaScreen GST-E1A/His-CtBP binding, 1536-well; stronger effect = lower value; control for the full effect not named in the record; activity change, % (concentration not given with the values); in the data active means activity change below about -65%; inconclusive means about -30% to -65%; inactive means above about -30%; also: % is scaled to controls: 0 for no effect and ±100 for the full control effect
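Protein mix (5X: 125 nM each GST-E1A, His-CtBP) was incubated with pinned compound 2 h at 37 deg C in dark, in 50 mM Tris pH 8.0 buffer with 300 mM NaCl. Glutathione donor and nickel acceptor beads followed; AlphaScreen signal read after 1 h.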
Six1-Eya2 inh = inhibitors of human Six1/Eya2 interaction; Q15475+O00167; AlphaScreen GST-Six1/His-Eya2 binding, biochemical; stronger effect = lower value; control for the full effect not named in the record; activity change, % (test concentration not listed); 0.56% of 360,000 active; AID 651725; in the data active = activity change below about -65%; inconclusive = about -30% to -65%; inactive = above about -30%; also: % is scaled to controls: 0 for no effect and ±100 for the full control effect; compound concentration not given in the record
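AlphaScreen luminescence read after one hour at 37 °C in darkness. Pin-transferred compounds met GST-Six1 and His-Eya2 protein (5X stock 250 nM/500 nM) plus glutathione donor and Ni-chelate acceptor beads (5X, 50 ug/mL).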
Starred values were filed as active, the others as inactive; ? = inconclusive; . = no result given; & = joins results of further samples; [ ] = remark or other dose.

smiles,Six1-Eya2 inh,PINK1 expr mod,CtBP-E1A inh,D2 PAM,TRPML1 ag,D2 agonist
Cc1ccc(C)n1-c1ccc(C(=O)NCC2CCCO2)cc1 (configuration not stated),4,-1.3%,0,7,-0.3,-0.4
COc1cccc(NC(=O)Cn2c(=O)n(-c3ccccc3)c(=O)c3oc4ccccc4c32)c1,-4,5.0%,0,-1,1.9,-3.1
COC(=O)c1ccc(C(=O)OC)c(NC(=O)CN(C)Cc2cccc(Cl)c2Cl)c1,17,0.3%,1,0,1.9,-1.5
O=C(CSc1nnc(-c2cccs2)o1)N1CCOCC1,6,-5.9%[38.3 µM],2,6,0.8,0.1
CCOC(=O)C1(Cc2cccc(F)c2)CCN(Cc2cn(CC)nc2C)CC1,-7,-0.8%,.,-9,1.1,0.1
CCS(=O)(=O)N1CCC(C(=O)NCc2ccccc2OC)CC1,4,-0.8%[38.3 µM],8,-17,-0.5,-1.8
C#CC(=O)N(c1ccc(OC)cc1OC)C(C(=O)NC1CCCC1)c1cccs1 (configuration not stated),-12,-1.1%,.,-6,-0.4,-2.7
COc1ccc(C2NC(C(=O)O)CS2)cc1COCC(F)(F)F (configuration not stated),-8,3.1%[38.3 µM],1,-3,-0.1,-2.4
O=C(c1ccc(-n2c(SCc3cccc(F)c3)nc3ccccc3c2=O)cc1)N1CCOCC1,-3,0.4%,3,-2,-0.1,-1.7
CCOc1cc(CNCCSc2nnnn2C)cc(Br)c1OCc1ccccc1F,-1,.,8,-19,0.6,-0.3
Cc1cc(C)cc(C(=O)N2CCN(c3ccccn3)CC2)c1,0,-1.0%,7,6,-0.1,6.2
CCC(=O)N(Cc1ccco1)c1nc(-c2ccccc2)cs1,4,.,1,0,0.7,1.0
COc1ccc(-c2csc(C(NC(C)=O)c3ccccc3)n2)cn1 (configuration not stated),8,0.9%,4,-3,-0.6,-5.7
CCCNC(=O)c1ccccc1NC(=O)C1=CSCCO1,-15,2.4%,.,0,-0.2,-4.2
Fc1cccc(Cc2c(-c3cccc(Br)c3)nc3c(Cl)cc(C(F)(F)F)cn23)c1,15,9.0%,16,-2,0.2,-4.4
Cc1ccc(C2=NS(=O)(=O)N(C)C(C(=O)N3CCCCC3)=C2)cc1,2,1.8%,4,-4,-0.4,3.2
Cc1ccc(C(=O)CSc2nc3ccccc3c(=O)n2-c2ccccc2)s1,2,4.4%,7,-9,0.3,-4.8
CC(=O)c1cc(C(=O)N2CCCC(C(=O)c3ccc(Cl)cc3)C2)cs1 (configuration not stated),-5,-2.5%,0,-1,0.5,-4.5
Cc1ccccc1Nc1nc(N)nc(COC(=O)[C@@H](NC(=O)c2ccccc2Cl)C(C)C)n1,12,1.6%,4,12,1.7,6.5
Cn1c(=O)n(CC(=O)N2CCOCC2)c2ccccc21,0,1.2%,9,-14,-0.5,-3.1
O=S(=O)(NCC(c1cccnc1)N1CCN(c2ccc(F)cc2)CC1)c1cc(F)ccc1F (configuration not stated),-2,5.8%[38.3 µM],-2,6,-0.5,2.2
CN(Cc1nc(-c2ccccc2)no1)C1CCOCC1,4,-0.3%,-2,-12,.,-6.2
CCCOc1ccc(F)cc1-c1cc(C(=O)Nc2ccc(F)c(Cl)c2)[nH]n1,3,40µM*,2,-5,0.3,5.6
COc1ccc(NC(=O)/C=C/c2ccc(OC(F)F)cc2)cn1,-1,8.2%,-5,-2,0.3,-1.1
COc1ccccc1CN1CCc2c([nH]c3ccccc23)C1,-1,2.6%,.,-69,-0.6,-4.2

Another view of 2 compounds above:
Cc1ccccc1Nc1nc(N)nc(COC(=O)[C@@H](NC(=O)c2ccccc2Cl)C(C)C)n1
  Six1-Eya2 inh = 12	PINK1 expr mod = 1.6%	CtBP-E1A inh = 4	D2 PAM = 12	TRPML1 ag = 1.7	D2 agonist = 6.5

Cn1c(=O)n(CC(=O)N2CCOCC2)c2ccccc21
  Six1-Eya2 inh = 0	PINK1 expr mod = 1.2%	CtBP-E1A inh = 9	D2 PAM = -14	TRPML1 ag = -0.5	D2 agonist = -3.1

Carrying on.
smiles,Six1-Eya2 inh,PINK1 expr mod,CtBP-E1A inh,D2 PAM,TRPML1 ag,D2 agonist
COc1ccc(CCNC(=O)C2CCN(Cc3nc(-c4cccc(Cl)c4)oc3C)CC2)cc1OC,-3,3.9%,-8,-31,-0.5,-1.3
CCCCN1C(=O)C(=O)N(CC(=O)Nc2ccc(OC(F)(F)F)cc2)C1=O,1,11%,2,6,0.4,-1.5
CN(Cc1ccco1)C(=O)C1CCN(c2nnc(-n3cccc3)s2)CC1,-4,1.6%,-3,-6,0.9,-1.1
COc1ccccc1OCC(O)CN1CCN(CC(=O)Nc2c(C)cccc2C)CC1 (configuration not stated),2&5,0.9%&2.7%,2&3,-23&-18,0.3&-0.7,-5.1&4.3
O=P(O)(O)c1ccccc1OCc1ccccc1,10,0.5%,3,4,-0.1,-0.9
CC1Cc2ccccc2N1C(=O)CCN1C(=O)C2C3C=CC(C3)C2C1=O (configuration not stated),23,-1.1%,4,-5,-0.3,-3.5
Cc1ccc(SCCC(=O)OCC(=O)Nc2ccc(S(N)(=O)=O)cc2)cc1,4,-1.1%,6,4,0.4,1.6
CC(Nc1nc(N2CCOCC2)nc2ccccc12)c1ccccc1 (configuration not stated),-7,0.0%,3,-12,-0.7,-5.5
CCCCN1C(=O)C(C(=O)OCC)CC2=C1CCCC2=O (configuration not stated),12,-0.3%,3,-2,3.5,-0.1
CN1CCN(c2ccccc2NC(=O)c2ccc([N+](=O)[O-])cc2Cl)CC1,-7,-1.0%,-8,-1,-0.5,-1.8
O=C(c1nn(Cc2ccccc2)c(=O)c2ccccc12)N1CCN(c2ccccn2)CC1,-9,-1.7%,-10,-23,1.5,-2.2
O=C(NCCc1c[nH]c2ccccc12)OC1CC2CC1[C@H]1CCCCN1C2=O (some centres not stated),5,0.3%,-10,.,0.5,.
COc1ccc(NC(=S)N(CCc2ccc(OC)c(OC)c2)Cc2ccccn2)cc1,-9,-0.3%,-6,-2,2.5,-2.0
COc1ccc(/C(N)=N/OC(=O)c2cccs2)cc1,10,1.6%,.,7,-0.5,9.1
CCCc1cc(=O)[nH]c(SCC(=O)c2cc(C)n(-c3cc(C)on3)c2C)n1,3,3.0%,-3,4,-0.3,1.7
Cc1cc(C)nc(SCC(=O)N/N=C/c2cccn2-c2ccc(O)cc2)n1,-20,-1.5%,-10,-31,-0.9,-2.3
COCCNC(=O)C1(C)CCCN(Cc2cccc(OC(=O)c3ccccc3)c2)C1 (configuration not stated),2,1.5%,1,-8,-0.4,-5.0
CCOc1ccc(N2C(=O)CC(Sc3nc(C)cc(C)n3)C2=O)cc1 (configuration not stated),3,.,8,-8,0.1,0.0
C[C@H]1CN([C@@H](C)CO)S(=O)(=O)c2ccc(Br)cc2O[C@H]1CN(C)C(=O)NC1CCCCC1,5,2.0%,2,-6,1.1,-0.3
CCOC(=O)N1CCC(NC(=O)CS(=O)Cc2nc(-c3ccc(Cl)cc3)oc2C)CC1 (configuration not stated),3,-1.0%,.,-2,3.2,-0.4
COc1cc(C(=O)NCCc2cc3c(OC)ccc(OC)c3[nH]c2=O)cc(OC)c1OC,-2,-0.9%,1,0,4.0,-1.8
O=C(Nc1ccccc1N1CCOCC1)c1ccc(Br)o1,-1,-2.6%[38.3 µM],3,-12,0.8,-1.4
O=C(COC(=O)c1ncc(Cl)c(Cl)c1Cl)Nc1ccccc1OC(F)F,9,-0.5%,.,0,0.4,6.2
CCOc1ccc(N(CC(=O)NCCSCc2ccco2)S(=O)(=O)c2ccc(C)cc2)cc1,-3,0.8%,-7,-6,1.2,-3.6
O=C(COc1ccc(/C=N/NC(=O)c2ccccc2)cc1)Nc1ccc([N+](=O)[O-])cc1,0,-0.7%,1,5,-0.3,-2.1

(listing goes on)
smiles,Six1-Eya2 inh,PINK1 expr mod,CtBP-E1A inh,D2 PAM,TRPML1 ag,D2 agonist
C/C(CC(=O)Nc1ccc([N+](=O)[O-])cc1)=N/NC(=O)C1CC12CCC2 (configuration not stated),-9,-1.1%,-5,-30,-0.2,-3.9
CC1CN(S(=O)(=O)c2cccc(C(=O)Nc3ccccc3N3CCOCC3)c2)CC(C)O1 (configuration not stated),30,0.6%,5,0,1.3,1.7
CC(=O)N1CCN(S(=O)(=O)c2cccc(C(=O)NC3CCC(C)CC3)c2)CC1 (configuration not stated),8,-0.1%,0,2,0.8,3.8
COc1ccc(CCN(C(=O)c2snc(C(N)=O)c2N)C(C)C(=O)NC2CCCCC2)cc1OC (configuration not stated),1,0.4%,23,1,-0.4,4.6
COc1cc(-c2cnc3c(NC=O)cc(-c4cccc(C(=O)NCCN(C)C)c4)cn23)cc(OC)c1OC,-13,7.3%,-16,-14,-0.5,4.2
O=C(c1ccc(Cl)cc1)c1c[nH]cc1-c1ccccc1,-7,-0.2%,-7,-1,0.5,-0.7
O=C(O)C/C(=C\c1cccc(NC(=O)c2ccccc2Cl)c1)c1nc2ccccc2s1,0,0.3%,5,1,0.3,-3.1
Cc1ccc(CNC(=O)COC(=O)COc2ccc(C#N)cc2)cc1,6,-0.6%,2,-5,0.0,-6.0
Cc1cc(C)c2c(=O)n(-c3ccccc3)[nH]c2n1,-7,-2.7%,-4,-5,-0.9,-2.2
COc1ccc(S(N)(=O)=O)cc1C(N)=O,-1,2.1%,4,-2,0.2,-0.3
O=C(OC(C(=O)NC1CCCCC1)c1ccccn1)c1cccs1 (configuration not stated),-2,-2.5%,-1,-13,0.4,-1.9
N#Cc1c(C(F)(F)F)cc(-c2ccccc2)nc1SCCN1CCOCC1,4,.,13,4,-0.1,2.0
CCCCn1c(N)c(N(CCOC)C(=O)C2CCN(S(=O)(=O)c3ccc(Cl)cc3)CC2)c(=O)[nH]c1=O,-5,0.7%,7,-12,0.0,-1.4
CCn1ccc(C(=O)Nc2ccsc2C(=O)OC)n1,-6,1.0%,1,-7,-0.4,-0.4
CC(C)C(NC(=O)Nc1ccccc1)C(=O)Nc1cccc(S(=O)(=O)N(C)C)c1 (configuration not stated),13,1.1%,15,-16,-0.4,-1.4
COc1cc2ccccc2cc1C(=O)NC(=S)Nc1cccc(C(=O)O)c1,?,2.5%,-29,3,0.6,11
CCCn1nnnc1SCC(=O)N1CCCC1,3,-0.4%,-8,-1,0.1,0.6
CCOC(=O)C(C(=O)OCC)C(C)C#CCN1CCCCC1 (configuration not stated),-1,0.9%,10,-13,0.4,-3.8
O=C(NC1CCCCC1)c1ccc(-n2cnnn2)cc1,0,1.6%,3,-5,.,-0.7
CCOc1cc(NS(=O)(=O)c2ccc(Cl)cc2)c(OCC)cc1NC(=O)CC(C)C,-21,-0.7%[38.3 µM],-17,-11,1.0,-0.5
